Vaccinia pol inh: inhibitors of vaccinia virus processive DNA synthesis (E9 polymerase). in vitro processive DNA synthesis, absorbance read-out; stronger effect = lower value; some inactives read as strong as hits. hit rate 0.94% among 46,000. AID 493162. normalized absorbance, % (no concentration beside the values);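 active = replicate mean up to 90% and picked by the depositor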;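 note: 100% = median of the test wells of a plate; 100 nL library stock went into each well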
* hit, by the source's call. Some of the compounds tested; rates above refer to the full screens.

SMILES	Vaccinia pol inh
Cc1ccc(-c2nc3ccccc3s2)cc1S(=O)(=O)N1CCCC1	111
O=C1OC(c2ccccc2)OC(=O)C1=Cc1ccc(-c2cccc(Br)c2)o1 (stereo not given)	100
COc1ccc(-c2ccc3c(N)c(C(=O)Nc4cccc(C(F)(F)F)c4)sc3n2)cc1OC	100
O=C(O)c1ccccc1C(=O)NCc1ccc2c(c1)OCO2	102
O=C(NCCc1nc2ccccc2[nH]1)c1ccccc1	101
O=C(Nc1ccc(S(=O)(=O)N2CCCC2)cc1)c1ccco1	115
CSc1nc2ccc(NC(=O)/C=C/c3cccs3)cc2s1	101
Cc1ccc(N=C2NC(=O)/C(=C\c3ccc4c(c3)n(C)c(=O)n4C)S2)cc1	100
Cc1oc(-c2ccccc2)nc1Cn1c(SCc2cccc(Cl)c2)nc2ccncc21	103
FC(F)(F)c1cc(-c2nc(=S)[nH][nH]2)cc(C(F)(F)F)c1	97
O=C(Nc1ccc(-n2nncc2-c2ccccc2)cc1)c1c(F)cccc1F	101
Cc1cc(=O)n(-c2cccc(C(F)(F)F)c2)[nH]1	103
Cc1ccc(S(=O)(=O)NCC(c2ccccc2)N2CCCCC2)cc1 (stereo not given)	99
COC(CNc1ncnc2c1c(-c1ccccc1)cn2-c1ccccc1)OC	99
CCOC(=O)C1=C(Cn2nnc(C(=O)OC)c2C(=O)OC)NC(=O)NC1c1ccccc1 (stereo not given)	96
O=C1/C(=C/c2cc3ccccc3o2)CC/C1=C\c1cc2ccccc2o1	99
O=C(OCCn1ncc2ccccc2c1=O)c1cccs1	93
CC(C(=O)NCc1ccco1)n1c2ccccc2c2cnn(C)c(=O)c21 (stereo not given)	94
O=C(ON1C(=O)c2ccccc2C1=O)C1CCCCC1	100
C=CCN1C(=O)N(CC=C)c2cccc3cccc1c23	100
CC(=O)Nc1cccc(C(=O)N2CCCCC2)c1	101
COc1ccc(Cl)cc1NC(=O)c1nnn(CC(=O)Nc2c(C)cccc2C)c1N	102
COc1ccc2oc(=O)c(S(=O)(=O)c3ccc(C(C)C)cc3)cc2c1	100
CC1(C)COC(c2sccc2C(=O)N(C(=O)NC2CCCCC2)C2CCCCC2)=N1	100
CCCC1CCC(C2CCC(C#N)CC2)CC1 (stereo not given)	89
O=C(Cc1ccc(-n2cccc2)cc1)N1CCc2ccccc21	96
N=c1oc2ccc(Br)cc2cc1-c1ccccn1	86
O=C(c1sc2ccccc2c1Cl)n1cccn1	100
N=c1sc(C(=O)c2ccccc2)c2scc(-c3ccccc3)n12	99
Cc1cccc(C)c1NC(=O)C1(NC(=O)C(C)O)CCCC1 (stereo not given)	96
O=C(O)CCC(=O)Nc1cccc2ccccc12	103
Cc1ccc2nc(NC(=O)c3ccccc3F)sc2c1	100
COC(=O)c1ccc(COc2ccc3c(-c4ccccc4)cc(=O)oc3c2C)o1	100
O=C1Nc2ccccc2C1c1nc2ccccc2[nH]c1=O (stereo not given)	98
CCSc1ncc(Cl)c(C(=O)Nc2ccccc2)n1	94
c1ccc2sc(N3CCOCC3)nc2c1	102
Cc1ccc(C2=NN(S(C)(=O)=O)C(c3ccc4nccnc4c3)C2)cc1 (stereo not given)	100
COc1ccc(-c2c(C(F)(F)F)oc3cc(O)ccc3c2=O)cc1	100
CCOC(=O)c1c(C)[nH]c(=S)c(C#N)c1-c1ccc(OC)cc1	99
CCN1CCN(S(=O)(=O)/C=C/c2ccccc2)CC1	99
Cc1ccc2c(c1)N(CC(=O)NCCc1ccccc1)C(=O)c1cccnc1O2	99
Cc1ccccc1CN1CCC(N2CCCCC2)CC1	108
COC(=O)c1ccc2c(=O)n(C3CCCCC3C)c(=S)[nH]c2c1 (stereo not given)	99
CC(C)N(Cc1ccccc1)C(=O)c1ccc(OC(F)(F)F)cc1	96
COc1cccc(CNS(=O)(=O)c2c(C)nc3sccn3c2=O)c1	110
COC(=O)c1sc2ccccc2c1NC(=O)c1ccccc1	99
N#CC1=C(SCC(=O)NCc2ccccc2)NC(=O)CC1c1ccco1 (stereo not given)	110
Clc1ccc(CNc2ccc3c(c2)OCCO3)c(Cl)c1	99
CC(C)(C)NC(=O)c1cccc(S(=O)(=O)N2CCCC2)c1	95
CC1CCN(Cc2ccc(O)c3ncccc23)CC1	108
Cc1nnc(NC(=O)CSc2nccn2-c2ccccc2)s1	89
O=C1CCCN1CC12CC3CC(CC(C3)C1)C2	103
O=C(c1ccccc1S(=O)(=O)NCc1ccccc1)N1CCCC1	100
COc1ccc(OCC(=O)N2CCN(c3ccccc3)CC2)cc1	101
CCCCn1c(=S)[nH]c2ccccc2c1=O	99
O=C(OCc1cccs1)c1cccnc1Cl	89
CCOCc1c[nH]c(=O)[nH]c1=O	98
O=C(Nc1ccc(-c2nc3ccccc3o2)cc1)c1ccc(C(=O)c2ccccc2)cc1	101
COc1ccc(C2CC2/C(=N/O)c2ccccn2)cc1 (stereo not given)	86
CNC(=O)Cn1c(=O)c2cccn2c2cccnc21	98

(continued)
SMILES	Vaccinia pol inh
CN(C)C(=S)SCc1ccc(Cl)cc1Cl	86
Oc1ccccc1C1=CC(c2ccccc2)=Nc2ccccc2N1	92
O=C(/C=C/Sc1ccc(Cl)cc1)c1ccccc1	105
Cc1cnc(N2CCN(NC(=S)Nc3cccnc3)CC2)c(Cl)c1	100
CCc1cc(C(=O)OC)c(NC(=O)CC2Sc3ccccc3NC2=O)s1 (stereo not given)	86
O=C(O)c1cc(NS(=O)(=O)c2ccc(Br)cc2)ccc1O	102
CCCN1C(=O)CCN(C(C)=O)c2ccccc21	100
S=C(Nc1ccccc1)N1c2ccccc2Sc2ccccc21	85
CCn1c(O)c(N=O)n(CC)c1=S	100
CC(=O)Nc1ccc(OCC(O)CN2C(C)CCCC2C)cc1 (stereo not given)	111
CC1CN(c2ccc(C(F)(F)F)cn2)CC(C)O1 (stereo not given)	101
c1csc(-c2cc3ccccn3c2)c1	101
O=C1CCCC/C1=C\Nc1ccc(Cl)cn1	101
O=C(O)/C=C/c1ccc(S(=O)(=O)Nc2cccnc2)cc1	100
CC1CCN(CN2C(=O)C3(OCCCO3)c3ccccc32)CC1	97

A draw from above in order of length of the SMILES, descending:
SMILES	Vaccinia pol inh
O=C(/C=C/Sc1ccc(Cl)cc1)c1ccccc1	105
CCCN1C(=O)CCN(C(C)=O)c2ccccc21	100
O=C1CCCC/C1=C\Nc1ccc(Cl)cn1	101

Next compounds:
SMILES	Vaccinia pol inh
O=C(Nc1ccc(F)cc1)c1cccc(OC(=S)Nc2cccc(Br)c2)c1	100
COc1cc(/C=N\S(=O)(=O)c2cccs2)cc(Br)c1O	101
Cc1[nH]nc(-c2ccc(O)cc2O)c1-c1nc2ccccc2s1	98
COc1cc2c(cc1OC)n(CC(=O)NC1CCCC(C)C1C)n1c(C)cc(=O)nc21 (stereo not given)	95
O=S1(=O)c2cccc3cccc(c23)N1Cc1ccccn1	100
CCOC(=O)Oc1ccc2c(c1)C(C)=CC(C)(C)N2C(=O)OCC	100
COc1ccc2c(=O)/c(=C/c3ccc4c(c3)OCO4)oc3cccc1c32	102
CCCN(CCC)CCn1cnc2c([nH]c3ccccc32)c1=O	86
Cc1ccc(NC(=O)CCS(=O)(=O)c2ccc3c(c2)n(C)c(=O)c(=O)n3C)cc1	83
O=C(O)CCC(=O)Nc1cccc(C(=O)O)c1	100
CCc1[nH]nc2c1C(c1cccc(OC(=O)N3CCOCC3)c1)C(C#N)=C(N)O2 (stereo not given)	100
COc1ccc(OC)c(NC(=O)CS(=O)(=O)c2cccc3nsnc23)c1	101
COc1ccc(-c2nc(NCCc3c[nH]c4cc(OC)ccc34)sc2C)cc1	102
CC(=O)Nc1ccc(C(=O)N(CC#N)CC#N)cc1	99
Cc1cccc(NC(=O)CSc2cn(Cc3cccc(F)c3)c3ccccc23)c1C	98
COC(=O)c1ccc(N2CCC(C)CC2)c(N)c1	108
CCOC(=O)c1c(N)sc2c1CCN(Cc1ccccc1)C2	78
O=S(=O)(NCC(c1cccnc1)N1CCOCC1)c1ccccc1 (stereo not given)	100
Cc1nnc(NC(C)(C)CCl)s1	100
CCOc1ccc(NC(=O)c2ccc(NCC(=O)N3CCCCCC3)cc2)cc1	102
CCC(C)NC(=O)c1ccc2c(c1)N(Cc1ccc(C)cc1)CCS2 (stereo not given)	96
CC1=NN(c2ccccc2)C(=O)C1C (stereo not given)	109
Cc1nc(N)sc1-c1csc(Nc2cccc(Cl)c2)n1	96
COc1ccc(C23CC4CC(CC(C4)C2)C3)cc1	96
Cc1ccc(C(=O)OC2CC(n3ccc(NC(=O)c4ccccc4)nc3=O)OC2CO)cc1 (stereo not given)	100
c1ccc(CCNc2nc(-c3cccnc3)cs2)cc1	110
CC1OP(=S)(C(Nc2ccccc2)c2ccccc2)OC1C (stereo not given)	106
CC(C)Cn1c2ccccc2c2nc3ccccc3nc21	99
O=C(Cn1c(-c2ccco2)nc2ccccc21)Nc1ccccc1Cl	103
Cc1cc2c(c(Sc3ccc(Cl)cc3)n1)C(=O)NC2=O	103

Reformatted: 21 of the compounds above
| canonical_smiles | Vaccinia pol inh |
| --- | --- |
| COc1ccc2c(=O)/c(=C/c3ccc4c(c3)OCO4)oc3cccc1c32 | 102 |
| CCCN(CCC)CCn1cnc2c([nH]c3ccccc32)c1=O | 86 |
| Cc1ccc(NC(=O)CCS(=O)(=O)c2ccc3c(c2)n(C)c(=O)c(=O)n3C)cc1 | 83 |
| O=C(O)CCC(=O)Nc1cccc(C(=O)O)c1 | 100 |
| CCc1[nH]nc2c1C(c1cccc(OC(=O)N3CCOCC3)c1)C(C#N)=C(N)O2 (stereo not given) | 100 |
| COc1ccc(OC)c(NC(=O)CS(=O)(=O)c2cccc3nsnc23)c1 | 101 |
| COc1ccc(-c2nc(NCCc3c[nH]c4cc(OC)ccc34)sc2C)cc1 | 102 |
| CC(=O)Nc1ccc(C(=O)N(CC#N)CC#N)cc1 | 99 |
| Cc1cccc(NC(=O)CSc2cn(Cc3cccc(F)c3)c3ccccc23)c1C | 98 |
| COC(=O)c1ccc(N2CCC(C)CC2)c(N)c1 | 108 |
| CCOC(=O)c1c(N)sc2c1CCN(Cc1ccccc1)C2 | 78 |
| O=S(=O)(NCC(c1cccnc1)N1CCOCC1)c1ccccc1 (stereo not given) | 100 |
| Cc1nnc(NC(C)(C)CCl)s1 | 100 |
| CCOc1ccc(NC(=O)c2ccc(NCC(=O)N3CCCCCC3)cc2)cc1 | 102 |
| CCC(C)NC(=O)c1ccc2c(c1)N(Cc1ccc(C)cc1)CCS2 (stereo not given) | 96 |
| CC1=NN(c2ccccc2)C(=O)C1C (stereo not given) | 109 |
| Cc1nc(N)sc1-c1csc(Nc2cccc(Cl)c2)n1 | 96 |
| COc1ccc(C23CC4CC(CC(C4)C2)C3)cc1 | 96 |
| Cc1ccc(C(=O)OC2CC(n3ccc(NC(=O)c4ccccc4)nc3=O)OC2CO)cc1 (stereo not given) | 100 |
| c1ccc(CCNc2nc(-c3cccnc3)cs2)cc1 | 110 |
| CC1OP(=S)(C(Nc2ccccc2)c2ccccc2)OC1C (stereo not given) | 106 |

Next section
SMILES	Vaccinia pol inh
O=C(OCC(=O)N1CCC(Cc2ccccc2)CC1)c1cccnc1Cl	95
COc1cccc(C(=O)Nc2cc(C)nn2-c2ccccc2)c1OC	98
CCOC(=O)C1=C(C)N(C)C(=O)NC1c1ccccc1OC (stereo not given)	101
CCCCc1ccc(NC(=S)NCCCN2CCOCC2)cc1	101
CCOC(=O)c1sc2sc(C(=O)OCC)c(-c3ccc(Cl)cc3)c2c1N	80
Cc1sc2nc[nH]c(=O)c2c1-c1ccc(F)cc1	100
Cc1ccc(N/C(=C\C(=O)c2ccccc2)C(=O)O)cc1	109
CCCCC/C=C\C\C=C/C=C/C=C/[C@@H](SCC(NC(C)=O)C(=O)O)[C@@H](O)CCCC(=O)O (stereo not given in full)	98
COc1ccc(-n2ncc3c(N(Cc4ccccc4)Cc4ccccc4)ncnc32)cc1	100
NS(=O)(=O)c1cc2c(cc1Cl)NC=NS2(=O)=O	99
COc1cc(C2NCCc3c2[nH]c2ccccc32)ccc1OC(C)C (stereo not given)	105
O=C(NC1CCCC1)[C@H](CSCc1ccccc1)N1Cc2ccccc2C1=O	106
Cc1ccc2c(C)c(C(=O)N(Cc3ccco3)Cc3ccccc3Cl)oc2c1C	88
COc1ccc2c(=O)c(-c3ccc(F)cc3)coc2c1	104
Cc1sc2c(c1C)CN(Cc1ccco1)CN2C(=O)c1ccccc1	94
O=C(COC(=O)c1ccccn1)Nc1cccc(Cl)c1	102
CC[C@H](C)[C@H](N)C(=O)N[C@@H](CC(N)=O)C(=O)N[C@@H](CC(C)C)C(=O)N[C@@H](CCCCN)C(=O)N[C@@H](C)C(=O)N[C@@H](CC(C)C)C(=O)N[C@@H](C)C(=O)N[C@@H](C)C(=O)N[C@@H](CC(C)C)C(=O)N[C@@H](C)C(=O)N[C@@H](CCCN)C(=O)N[C@@H](C)C(=O)N[C@@H](CC(C)C)C(=O)N[C@@H](CC(C)C)C(N)=O	45*
CCc1ccc(Nc2nc3ccccc3nc2NS(=O)(=O)c2ccc(C)cc2)cc1	100
c1cn(-c2ccc(-c3csnn3)cc2)cn1	108
O=C(Nc1ccc2c(c1)COC2=O)c1ccc(F)cc1	100
O=C(O)c1ccc(CSc2nc(-c3ccccc3)cc(C(F)(F)F)n2)cc1	97
OC(CNCc1ccc2c(c1)OCO2)COc1ccc(F)cc1 (stereo not given)	107
CCCN(CCC)S(=O)(=O)c1ccc(C(=O)Oc2c(C)cccc2OC)cc1	76
COC(=O)CNS(=O)(=O)Nc1ccc(-c2nc3ccc(C)cc3s2)cc1	99
CC(C)(C)NC(=O)Cn1c(-c2nonc2N)nc2ccccc21	101
CCC(C)C(NC(=O)c1ccccc1)c1nc2ccccc2[nH]1 (stereo not given)	103
O=C1C=C(c2ccc(Br)cc2)OC(c2ccccc2)O1 (stereo not given)	100
CCc1c(C)c(C#N)c2nc3ccccc3n2c1N1CCN(Cc2cc(Cl)ccc2OC)CC1	100
c1ccc2sc(NCC3CCCO3)nc2c1 (stereo not given)	83
CN1CCC(N(C)C(=O)c2sc3cc(F)ccc3c2Cl)CC1	83
CCN(c1cccc(C)c1)C(C(=O)Nc1ccc2c(c1)OCCO2)c1ccccc1 (stereo not given)	106
C/C(=N\O)c1cc(Cl)sc1Cl	109
CC(=O)Oc1cccc(/C=C2\N=C(c3ccccc3Br)OC2=O)c1	101
COc1ccc2c(Cl)c(C(N)=O)sc2c1	98
